Mtb growth: Mycobacterium tuberculosis H37Rv growth inhibition, cell based, confirmatory dose response (AID 1949). most inactive calls were filed without a number and no value below 0 was filed. inhibition, % at 10 µg/mL, or IC50 in µg/mL where a hit was titrated. actives 1.6% (n = 100,000);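 active means confirmed in a dose series; inconclusive means about 50% or more but not retested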;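 further: bacteria grown 7 days with compound before Alamar blue readout; 0% = untreated bacteria and 100% = reference antibiotic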
Active calls of the source: *; i = inactive; ? = inconclusive. The list is partial, so the mix of outcomes need not match the whole.

SMILES	Mtb growth
O=C(Cn1cnc2ccccc2c1=O)N(Cc1ccco1)c1ccc(O)cc1	i
O=C(NNC(=S)NCc1ccc(Cl)cc1)c1ccc2c(c1)OCO2	i
COc1ccc(OC)c(NS(=O)(=O)c2ccc(OC)c(C)c2)c1	i
Nc1nnc(SCC(=O)NCCOc2ccc(Cl)cc2)s1	3.4%
CN(Cc1ccccc1)S(=O)(=O)c1ccc(NC(=O)Cc2ccccc2)cc1	i
CCC(=O)Nc1cc(-c2nc3ccccc3s2)ccc1OC	i
CCc1ccc(S(=O)(=O)Nc2ccc(OCC(N)=O)cc2)cc1	i
Cc1c(Cl)ccc2c(C(N)=O)cc(-c3ccccn3)nc12	i
COC(=O)COc1cccc(NC(=O)c2ccccc2F)c1	?
O=C(CSc1nnc(Cc2cccs2)n1Cc1ccco1)Nc1ccc(Br)cc1	i
COc1cccc(COc2ccc3c(=O)c(-c4ccccc4OC)coc3c2)c1	1.4%
Cc1cc(C)cc(OCCCCn2cncn2)c1	i
Cc1ccc(-c2cc(C(F)(F)F)n3nc(C(=O)Nc4ccon4)cc3n2)cc1C	i
CCOC(=O)NC(=O)CSc1nnc(C)s1	i
COC(=O)c1cc2c(=O)n3cccc(C)c3nc2n(Cc2ccccc2)c1=N	i
COc1ccc(S(=O)(=O)NCC(=O)Nc2cccc(C)c2C)cc1OC	i
NC(=O)C1Cc2ccccc2CN1S(=O)(=O)c1cccs1 (centres undefined)	i
c1ccc2c(c1)nc(N1CCCCCC1)c1nncn12	i
Cc1cc(NS(=O)(=O)c2ccc(NC(=O)C3CC3)cc2)no1	i
C#Cc1cccc(NC(=O)COc2ccc(Cl)cc2)c1	8.18µg/mL*

The closing four compounds of the section before are carried over, then new ones follow.
SMILES	Mtb growth
NC(=O)C1Cc2ccccc2CN1S(=O)(=O)c1cccs1 (centres undefined)	i
c1ccc2c(c1)nc(N1CCCCCC1)c1nncn12	i
Cc1cc(NS(=O)(=O)c2ccc(NC(=O)C3CC3)cc2)no1	i
C#Cc1cccc(NC(=O)COc2ccc(Cl)cc2)c1	8.18µg/mL*
C=CCn1c(SCC(=O)N2CCCc3ccccc32)nc2sc(C)cc2c1=O	i
CC(C)NCCCCOc1ccccc1-c1ccccc1	i
Cc1cc(C(=O)Nc2ccc(S(=O)(=O)N3CCCC3)cc2)ccc1[N+](=O)[O-]	i
O=[N+]([O-])c1cccc(NC(=S)NCc2cn(-c3ccccc3)nc2-c2ccccc2)c1	?
COc1ccc(Cl)cc1NC(=O)Nc1ccc(C(C)=O)cc1	i
Cc1nn(Cc2ccc(F)cc2)c(C)c1[N+](=O)[O-]	1.6%
CCOC(=O)c1ccc(NC(=O)C2CCN(S(=O)(=O)c3ccc(C)cc3)CC2)cc1	i
Nc1nonc1C(=O)NCCNCc1ccc(F)cc1	i
Cc1ccc2cccc(OCc3ccc(S(=O)(=O)Cc4ccccc4)cc3)c2n1	2.6%
CCOC(=O)c1c(N)sc(C(=O)N2CCOCC2)c1C	i
Cc1cc(N)cc(-c2nc3ccccc3o2)c1O	16.4µg/mL*
O=C(NC(=S)Nc1ccc(Cl)cc1Cl)C1CC1	3.2%
COc1ccc([N+](=O)[O-])cc1NC(=O)COc1ccc(C(C)(C)C)cc1Br	1.9%
Cn1nnnc1SCc1ccc(C(=O)Nc2ccc(Br)cc2)cc1	0.9%
O=C(NCC1CCN(C(=O)c2ccc(Cl)cc2)CC1)c1ccc(Cl)cc1	i
C=C(C)Cn1c(CCn2c3ccccc3c3ccccc32)nnc1SCC(=O)OC	i
C=CCn1c2ccccc2c2nnc(SCCN3CCOCC3)nc21	i
COCCNC(=O)c1ccccc1NC(=O)CN(c1ccc(Cl)cc1)S(=O)(=O)c1ccc(C)cc1	i
Cc1ccc(NC(=O)COc2c(C)ccc(C)c2C)c(Br)c1	i
C=CCNCCCOc1ccccc1-c1ccccc1	i
CCCCc1cc(=O)oc2cc3oc4c(c3cc12)CCCC4	i
Cc1ccc(NC(=O)c2ccccc2C)cc1CN1C(=O)c2ccccc2C1=O	i
CCn1c(SCC(=O)Nc2ccc(I)cc2C)nnc1C(NC(=O)c1ccc(C)cc1)C(C)C (centres undefined)	39.3%
CCOc1ccc(NC(=O)CN(C)S(=O)(=O)c2ccc(Cl)cc2)cc1	i
CCc1cc(=O)oc2cc(O)cc(O)c12	i
CCc1cc(=O)oc2c(C)c(OCC(=O)c3ccc(OC)cc3)ccc12	4.6%
Cc1ccc(C(=O)NC(=S)Nc2ccc3c(c2)C(=O)N(C)C3=O)cc1Cl	i
CCn1c(C)c(C(C)=O)c(N2CCC(C(N)=O)CC2)nc1=S	0.8%
Cc1ccc(NC(=O)Cc2ccc(F)cc2)c([N+](=O)[O-])c1	i
COc1ccc(CNC(=O)c2cc3cc(OC)ccc3oc2=O)cc1	i
CCS(=O)(=O)c1nc2ccccc2n1C	i
O=C(Nc1ccccc1)c1ccc(Cl)c(S(=O)(=O)N2CCc3ccccc32)c1	i
O=C(COc1cccc2ccccc12)Nc1ccc(Br)cc1F	i
Cc1cc(C)nc(NC2=NCC(=O)N2c2ccc(Oc3ccccc3)cc2)n1	44.1%
CCOC(=O)c1ccc(NC(=S)Nc2cccc(C(=O)NCc3ccccc3)c2)cc1	6.3%
COc1ccc(S(=O)(=O)Nc2ccc(S(=O)(=O)N3CCCCC3)cc2)cc1C	i
COC(=O)c1ccc(COc2ccc3c(oc(=O)c4cc(OC)ccc43)c2C)cc1	i
COc1ccc(CCNC(=O)C(=O)NCCCN2CCOCC2)cc1	i
Cc1cc(Cl)c(S(=O)(=O)N2CCN(c3ccccn3)CC2)cc1OCC(N)=O	0.7%
Nc1c(C(=O)NCc2ccccc2)nnn1Cc1ccccc1	2.8%

The closing 7 entries of the section before lead into the next:
SMILES	Mtb growth
Cc1cc(C)nc(NC2=NCC(=O)N2c2ccc(Oc3ccccc3)cc2)n1	44.1%
CCOC(=O)c1ccc(NC(=S)Nc2cccc(C(=O)NCc3ccccc3)c2)cc1	6.3%
COc1ccc(S(=O)(=O)Nc2ccc(S(=O)(=O)N3CCCCC3)cc2)cc1C	i
COC(=O)c1ccc(COc2ccc3c(oc(=O)c4cc(OC)ccc43)c2C)cc1	i
COc1ccc(CCNC(=O)C(=O)NCCCN2CCOCC2)cc1	i
Cc1cc(Cl)c(S(=O)(=O)N2CCN(c3ccccn3)CC2)cc1OCC(N)=O	0.7%
Nc1c(C(=O)NCc2ccccc2)nnn1Cc1ccccc1	2.8%
Cc1ccc(-c2cc(-c3ccccc3)c(C#N)c(SCC3(O)CCCCC3S(C)=O)n2)cc1 (centres undefined)	6.1%
CCOc1ccc(NC(=O)c2ccc(S(=O)(=O)N3CCCCC3C)cc2)cc1 (centres undefined)	3.6%
COc1cccc(OCCCN2CCN(S(=O)(=O)c3ccc(C)cc3)CC2)c1	4.2%
COc1ccccc1CN1C(=O)C2C3c4ccccc4C(c4ccccc43)C2C1=O (centres undefined)	i
COc1cccc(N(CC(=O)Nc2ccccc2C(=O)NC(C)C)S(=O)(=O)c2ccccc2)c1	i
CCNC(=O)c1ccc(NS(C)(=O)=O)cc1	i
COc1ccc(C)cc1S(=O)(=O)Nc1cccc(SC)c1	i
CCC(C)(C)NS(=O)(=O)Cc1ccccc1	i
O=C(Nc1ccc2nc(NC(=O)c3cccs3)sc2c1)c1cccs1	i
O=C(CN(c1ccccc1)S(=O)(=O)c1ccccc1[N+](=O)[O-])Nc1ccc2c(c1)OCCO2	i
O=C(Nc1ccc(S(=O)(=O)N2CCCC2)cc1)c1cccc(F)c1	i
COc1ccc(-c2nc3ccc(Br)cc3c(C(=O)O)c2C)cc1	0.3%
CSc1ccc(-c2nnn(Cc3ccc(C)cc3)n2)cc1	i
O=C(NN1CCOCC1)c1cnn2c(C(F)F)cc(-c3ccccc3)nc12	i
Cc1ccc(S(=O)(=O)N(CC(=O)N2CCCC2)Cc2ccc(Cl)c(Cl)c2)cc1	i
CCCc1cc(C(N)=O)c(NC(=O)C2CCCO2)s1 (centres undefined)	i
Cc1cc(C)c(C)c(S(=O)(=O)Nc2cccnc2)c1C	i
Cn1c(/C=C/c2ccc([N+](=O)[O-])cc2)nc2ccc(I)cc2c1=O	i
COc1cccc(C2Nc3ccc([N+](=O)[O-])cc3C3C4CCC(C4)C23)c1OC (centres undefined)	i
COC(=O)c1cn(-c2ccccc2)nc1-c1cccc([N+](=O)[O-])c1	i
COc1cc(NC(=S)NC(=O)c2cc3ccccc3o2)ccc1NC(=O)c1cccs1	5.0%
[O-][n+]1cc(O)c(CN2CCOCC2)c2ccccc21	i
CN(C)C(CC(=O)Nc1cccc(Cl)c1Cl)C(=O)O (centres undefined)	i
CCCCCSc1nc2ccc(I)cc2c(=O)n1CC	2.8%
O=C(NC1CCCCC1)c1ccc(S(=O)(=O)N2CCOCC2)cc1	i
Cc1ccc(CC(=O)Nc2ccc(Cl)cc2)cc1	0.3%
Cc1ccc(C(C)C)c(Oc2nnnn2-c2ccccc2)c1	10.5%
COc1ccc(OC)c(S(=O)(=O)N2c3cc(F)ccc3CCC2C)c1 (centres undefined)	0.1%
Cc1ccc(-n2nnnc2SCC(=O)NC2CCCCC2)cc1C	i
Cc1ncc([N+](=O)[O-])n1Cc1ccc(I)cc1	i
C=C(C)Cn1c(SCC(=O)c2ccc(Cl)s2)nc2sc3c(c2c1=O)CCC3	i
O=C(NCCc1ccccc1)c1ccc(CSc2ccccc2)o1	23.2%
C=CCn1c(N)cc(=O)nc1SCC(=O)Nc1ccc(Cl)cc1	i
N#C/C(=C/c1ccc2c(c1)OCO2)c1ccc(C#N)cc1	8.6%
CCOc1ccccc1C(=O)Nc1nc2ccc(S(N)(=O)=O)cc2s1	14.3%
O=C(CSc1nc(N2CCOCC2)nc(N2CCOCC2)n1)c1ccccc1	0.0%
CC1CCN(S(=O)(=O)c2ccc(Br)s2)CC1	1.2%
CCc1ccc(NC(=O)CSc2nnc(-c3ccccc3C)n2CC)cc1	i
O=C(O)CCC(=O)N1CCN(c2nc3ccccc3s2)CC1	i
O=C(NCc1ccco1)c1cnn2c(C(F)F)cc(C3CC3)nc12	i
CCOC(=O)c1c(-c2ccccc2)csc1NC(=O)CCN1C(=O)c2ccccc2C1=O	i
CCOc1ccc(C(C)NC(=O)c2ccc(Cl)cc2)cc1 (centres undefined)	i
Cn1nc(-c2ccc(NCCN3CCOCC3)c([N+](=O)[O-])c2)c2ccccc2c1=O	4.3%
CC1=CCC(C(=O)O)C(C(=O)Nc2ccccc2NC(=O)c2ccc(C(F)(F)F)cc2)C1 (centres undefined)	0.1%
CCc1ccc(OCC(=O)Nc2sc3c(c2C(=O)OC)CCC3)c(Br)c1	i
CC1CN(C(=O)Cn2cnc3c2c(=O)n(C)c(=O)n3C)CC(C)O1 (centres undefined)	i
Cc1ccc(Cl)cc1N1CCN(C(=O)c2ccc(C)c([N+](=O)[O-])c2)CC1	47.7%
Cc1ccc(-c2ccc(Br)cc2)n1-c1ccc(N2CCOCC2)cc1	i
COCCCN1C(=O)c2ccc(C(=O)OCc3ccccc3Cl)cc2C1=O	31.8%
Cc1cccc2c(N=NC(=O)c3cccc(O)c3)c(O)n(C)c12	i
CCCc1nc2ccc(Br)cc2c(=O)n1-c1ccc([N+](=O)[O-])c(C(F)(F)F)c1	48.7%
CC1=C(C(=O)OCC2CCCO2)C(c2ccccc2Br)NC(=O)N1 (centres undefined)	0.3%
NS(=O)(=O)c1ccc(NS(=O)(=O)c2ccc(NC(=O)c3ccccc3)cc2)cc1	i
CCN(CC)CCNC(=O)c1cc2cc(NC(C)=O)ccc2[nH]1	i
COc1cc([N+](=O)[O-])cc2c1NC(c1ccccn1)C1CC=CC21 (centres undefined)	5.2%
Fc1ccccc1CSc1nc2ncc(Br)cc2[nH]1	i
CCOc1ccc(-c2cc(C(=O)NCc3ccccn3)c3ccccc3n2)cc1	i
Oc1ccccc1Nc1nc(NCc2ccco2)c2ccccc2n1	5.36µg/mL*
CS(=O)(=O)N1CCN(Cc2cccc(Cl)c2)CC1	i
O=C(c1ccccc1Br)N(Cc1ccc(Cl)cc1)C1CCS(=O)(=O)C1 (centres undefined)	i
Remaining list, next part:
SMILES	Mtb growth
N#CCc1ccc(NC(=O)CN2C(=O)c3ccccc3S2(=O)=O)cc1	i
Cc1cc(OCCOCCn2ccnc2)cc(C(C)C)c1	i
O=C(O)c1ccc(-c2nnc(-c3ccccc3)o2)cc1	i
Cc1nn(Cc2cccc(Oc3ccccc3)c2)c(C)c1NC(=O)c1nc2ncccn2n1	11.3%
CCOc1ccc(Cc2n[nH]c(=S)n2Cc2ccccc2)cc1	0.7%
COc1ccc(C(=O)Nc2ccc(N3CCCCC3)cc2)cc1Cl	i
COc1ccccc1CC(=O)NC1CCCCCCCCCCC1	2.4%
Cc1cc(Br)cc(C)c1NC(=O)c1c(F)c(F)c(F)c(F)c1F	0.1%
CCOc1ccccc1C1C(C#N)=C(SCC(=O)NC2CCCCC2)NC(C)=C1C(=O)OC (centres undefined)	21.5%
CN(C)c1ccc(/C=C/c2nc3ccccc3c(=O)n2-c2ccccc2Cl)cc1	43.9%
Cc1cccc(Nc2nc(-c3ccc(F)cc3)cs2)n1	i
CCOC(=O)N1CCN(c2nc(C)cc(C(F)(F)F)n2)CC1	i
O=C(Oc1ccc2ccc(OC(=O)N3CCOCC3)cc2c1)N1CCOCC1	i
CCCC(=O)Nc1nc2ccc(S(=O)(=O)N(C)C)cc2s1	i
COc1ccc(OC)c(NC(=O)c2c(NCc3ccc(C)o3)sc3c2CCC(C)C3)c1 (centres undefined)	?
CCNc1nc(Oc2ccc(OCCOc3ccccc3C)nn2)nc(N(C)C)n1	i
CN1C(=O)N(C)C2CC1N(C)C(=O)N2C	1.5%
O=c1nc(/C=C/c2cccn2-c2ccc([N+](=O)[O-])cc2)cc(C(F)(F)F)[nH]1	9.2%
O=C(Nc1cccc(Cn2cccn2)c1)c1ccccc1[N+](=O)[O-]	i

High-throughput results from PubChem BioAssay.
